gsp agonist = qHTS for Agonist of gsp, the Etiologic Mutation Responsible for Fibrous Dysplasia/McCune-Albright Syndrome: qHTS. AID 624287, 2012. actives 0.13% (n = 340,000). Potency, µM (series often up to 76.9 µM), inactives show at the top dose activation (cAMP increase), actives largely listed as activators. gsp mutant cells, cAMP HTRF, 30 min; control for the full effect not named in the record; active = well fitted activation curve with a large enough effect; inconclusive = small, poorly fitted or top-dose-only effect, or another doubt; inactive = no such curve, though single readings can be large or run the other way; cell line not stated here;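 further: phosphodiesterase inhibitor Ro 20-1724 added with compounds to block cAMP breakdown; potency means the concentration at half of the fitted maximal effect; nearly all actives have a fitted effect of over 60% in size; about a fifth of the inactives were tested at one dose only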
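Cells in DMEM/10% FBS with G418 were pretreated with compounds in DMSO plus […] (300 uM stock) for 30 min at 37C. cAMP was measured by HTRF (cAMP-d2 plus anti-cAMP antibody-K) after 30 min at room temperature.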
ClpP mod = qHTS Assay for Activators of ClpP; ATP-dependent Clp protease proteolytic subunit (Bacillus subtilis (strain 168)), P80244; purified B. subtilis ClpP, FRET peptide cleavage, 20 min; Potency, µM (titrated, usually from 57.5 µM), for the others: top-dose activity change, negative = active; actives 1.9% (n = 340,000); AID 651965, 2013; active = well fitted falling curve with a large enough effect; inconclusive = small, poorly fitted or top-dose-only effect; inactive = no such curve, though single readings can be large or run the other way; further: potency means the concentration at half of the fitted maximal effect; the source files actives as falling curves though it sought activators and does not explain the sign; nearly all actives have a fitted effect of over 65% in size; many hits overshoot -100%
Target sequence (P80244 whole entry, looked up): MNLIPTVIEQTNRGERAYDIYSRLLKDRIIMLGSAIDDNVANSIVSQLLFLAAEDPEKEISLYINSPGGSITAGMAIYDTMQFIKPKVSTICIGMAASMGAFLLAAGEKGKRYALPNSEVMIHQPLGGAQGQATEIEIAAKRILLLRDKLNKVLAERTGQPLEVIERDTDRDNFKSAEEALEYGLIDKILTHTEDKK
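ClpP 10 microg/mL final, pH 8 Tris/KCl buffer with BSA, glycerol, Tween-20; compound pinned in; FRET-FV substrate; RT 20 min; Ex320/Em430; ΔFRET vs ADEP 5.8 microM, DMSO, no enzyme.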
TRPML1 inh = qHTS for Inhibitors of the Human Mucolipin Transient Receptor Potential 1 (TRPML1). actives 0.02% (n = 390,000). AID 624415, 2012. TRPML1-inducible cells, Ca2+ dye fluorescence, FDSS; stronger effect = lower value; inhibition of EC80 agonist-evoked calcium signal. activity change, negative = inhibition, % (test concentration not listed). Mucolipin-1 (Homo sapiens), Q9GZU1; in the data active means activity change below about -50%; inconclusive means about -30% to -50%; inactive means above about -30%;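 further: stimulus is agonist 54-4 at its EC80 concentration; on the % scale 0 is the no-effect control and ±100 the full control effect; compound concentration not given in the record; the text of the record puts the active cut at -80%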
Target sequence (Q9GZU1 whole entry, looked up): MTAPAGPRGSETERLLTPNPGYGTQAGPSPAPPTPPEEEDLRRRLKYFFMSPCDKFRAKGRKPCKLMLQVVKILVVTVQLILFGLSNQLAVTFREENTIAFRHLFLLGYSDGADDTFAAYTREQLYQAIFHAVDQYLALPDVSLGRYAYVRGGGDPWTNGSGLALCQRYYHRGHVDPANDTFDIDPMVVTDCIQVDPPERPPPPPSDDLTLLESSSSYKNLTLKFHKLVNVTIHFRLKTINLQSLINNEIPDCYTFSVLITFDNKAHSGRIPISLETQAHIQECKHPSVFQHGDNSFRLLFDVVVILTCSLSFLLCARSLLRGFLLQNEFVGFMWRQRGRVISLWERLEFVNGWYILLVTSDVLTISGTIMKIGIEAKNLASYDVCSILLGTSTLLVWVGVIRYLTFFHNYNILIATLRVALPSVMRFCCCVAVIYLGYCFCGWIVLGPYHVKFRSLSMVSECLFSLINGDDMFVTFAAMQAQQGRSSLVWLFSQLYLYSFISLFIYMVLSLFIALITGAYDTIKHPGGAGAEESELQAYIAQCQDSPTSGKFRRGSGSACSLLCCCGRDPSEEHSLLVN
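Tet-induced TRPML1-DL cells loaded with Ca8 no-wash calcium dye were read kinetically on FDSS. Compound addition was followed by EC80 agonist 54-4 (4 uM final); inhibition was read over 110 s.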
gsp antagonist = qHTS for Antagonists of gsp, the Etiologic Mutation Responsible for Fibrous Dysplasia/McCune-Albright Syndrome: qHTS. gsp-mutant cells, cAMP HTRF, 30 min; control for the full effect not named in the record. Potency, µM (series often up to 76.9 µM), for the others: at the top dose activity change, negative = inhibition, actives largely listed as inhibitors. actives 0.4% (n = 340,000). AID 624288, 2012; active = falling curve of any shape with a large fitted effect; inconclusive = falling curve, mostly with a smaller effect; inactive = flat or rising curve; cell line not stated here;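 further: intracellular cAMP measured with PDE inhibitor Ro 20-1724 present during compound exposure; potency means the concentration at half of the fitted maximal effect; on the % scale 0 is the no-effect control and ±100 the full control effect; nearly all actives have a fitted effect of over 65% in size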
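G418-selected cells were plated in DMEM/10% FBS for 16-24 h at 37C, then treated with compounds plus the PDE inhibitor […] (300 uM solution added) for 30 min at 37C. Intracellular cAMP was measured by HTRF after 30 min lysis at room temperature.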
Menin-MLL FL inh = qHTS Assay for Inhibitors Targeting the Menin-MLL Interaction in MLL Related Leukemias: Competition With Fluorescein Labeled MLL-derived Peptide; 290,000 tested, under 10 active; Fluorescence polarization, fluorescein-MLL peptide displacement from menin; FP activity change, % at 61.4 µM; inconclusive = falling polarisation curve, or a change in total fluorescence; inactive = total fluorescence flat and polarisation flat or rising; no compound was filed as active; the % refers to the polarisation; negative = inhibition;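 further: % of control where 0% means no effect; inhibitors lower the polarisation; unlabelled MLL peptide was the positive control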
Sfp inh = qHTS Assay for Inhibitors of Bacillus subtilis Sfp phosphopantetheinyl transferase (PPTase). 4'-phosphopantetheinyl transferase ffp (Bacillus subtilis), Q9F4F7. Biochemical Sfp PPTase activity, qHTS. Potency, µM, inactives show max response, negative = inhibition, actives largely listed as inhibitors. actives 3.5% (n = 310,000); active means well fitted inhibition curve with a large enough effect; inconclusive means small, poorly fitted or top-dose-only effect, or another doubt; inactive means no such curve, though single readings can be large or run the other way;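 further: the enzyme is Sfp with the accession as filed and its product quenches rhodamine fluorescence; potency means the concentration at half of the fitted maximal effect; 0% = enzyme reaction without inhibitor and -100% = no enzyme wells; top concentration of the series not given in the record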
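Sfp 15 nM + cpd, 15 min RT; start w/ rhodamine-CoA 5 uM, BHQ-2-YbbR 12.5 uM (final); 50 mM Hepes pH 7.6, 10 mM MgCl2, 0.01% NP-40, 0.01% BSA; read 525/598 nm at 0 and 30 min.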
TRPV1 PAM = HTS Assay for Compounds that Act as Potentiators of the Vanilloid Receptor 1. Transient receptor potential cation channel subfamily V member 1 (Homo sapiens), Q8NER1. TRPV1-expressing cells, Fluo-8 calcium influx, capsaicin EC20 potentiation; host cell line not named in the record; control for the full effect not named in the record. potentiation, % at 8.33 µM. actives 0.02% (n = 320,000). AID 540277, 2011; active means potentiation above 80%; inconclusive means 30% to 80%; inactive means below 30%; further: 0% is about no effect
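Fluo-8 calcium influx in TRPV1-expressing cells, kinetic read (ex 480/em 520 nm). Compound added and read 3 min for agonist activity, followed by capsaicin at EC20 final and 2 min further read for enhancement.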
* = called active by the depositor; ? = inconclusive; · = not tested or not shown; [ ] = another dose, or the depositor's remark.

Every second line gives: gsp agonist, ClpP mod, TRPML1 inh, gsp antagonist, Menin-MLL FL inh, Sfp inh, TRPV1 PAM
- CCn1nc(C)cc1C(=O)N1CCCC(Nc2ccc(C(C)C)cc2)C1 (configuration not stated)
    ?, -14%, 10, 1%, -4.0, 5%, -8
- O=C(NCc1ccccc1Cl)C1CC(=O)N(Cc2ccccc2)C1 (configuration not stated)
    -6%[15.4 µM], -2.3%, -16, 7%, 1.1, 24%, -11
- O=c1[nH]ncc(N/N=C\c2ccncc2)c1Cl
    17%, -2.9%, 9, 4%, 0.2, 23%, -4
- O=C(CSc1nnc2scc(-c3ccc(Cl)cc3)n12)NCc1ccc2c(c1)OCO2
    -7%, 0.4%, 19, 11%, -0.6, ?, 15
- COc1ccc(CNc2nc3nc(C)c(Cl)c(=O)n3[nH]2)cc1
    14%, -2.1%, ·, 1%, 0.7, 11%, ?
- CCCc1cc(=O)[nH]c(SCC(=O)Nc2ccc(Br)cc2)n1
    8%[15.4 µM], ·, 0, 4%, 0.8, 18%, 8
- CCc1cccc(OCCCCNCCO)c1
    -11%, -0.1%, -12, 19%, 0.9, -10%, 5
- O=S(=O)(Nc1ccc(-n2cnnn2)cc1)c1cccc(F)c1
    -9%[15.4 µM], ·, -1, 3%, ·, ·, -14
- CC(C)C(=O)Nc1nc2ccc(S(C)(=O)=O)cc2s1
    -11%, ·, -6, -7%, -0.6, 2%, 7
- Cc1ccc(CSC2=NCCN2S(=O)(=O)c2ccc(C)cc2)cc1
    -17%, 0.8%, 19, ·, ·, ·, ·
- NNC(=O)c1csc(-c2ccc(C(F)(F)F)cc2Cl)n1
    ?, ·, 14, 0%, 4.9, 2%, -16
- CCc1ccc(-n2c(SCc3c(C)noc3C)nnc2-c2ccncc2)cc1
    8%, -2.1%, -22, -4%[15.4 µM], 0.7, 3%, 2
- COc1cccc(-c2nc(CS(=O)(=O)CC(=O)NC3CCCCC3C)c(C)o2)c1 (configuration not stated)
    24%, -9.7%, 4, -3%, -0.1, 8%, -12
- CNC(=O)CN1C(=O)CSc2nc(C)cc(C)c21
    2%, -4.0%, -20, 5%, 2.2, -14%, 6
- CSc1nc(-c2ccc(C)cc2)nc(N)c1C#N
    12%, -11%, -1, 6%, 3.1, 17%, 7

A draw from above in order of molecular weight, falling.
Every second line gives: gsp agonist, ClpP mod, TRPML1 inh, gsp antagonist, Menin-MLL FL inh, Sfp inh, TRPV1 PAM
- O=C(CSc1nnc2scc(-c3ccc(Cl)cc3)n12)NCc1ccc2c(c1)OCO2
    -7%, 0.4%, 19, 11%, -0.6, ?, 15
- COc1cccc(-c2nc(CS(=O)(=O)CC(=O)NC3CCCCC3C)c(C)o2)c1 (configuration not stated)
    24%, -9.7%, 4, -3%, -0.1, 8%, -12
- CCc1ccc(-n2c(SCc3c(C)noc3C)nnc2-c2ccncc2)cc1
    8%, -2.1%, -22, -4%[15.4 µM], 0.7, 3%, 2
- CCCc1cc(=O)[nH]c(SCC(=O)Nc2ccc(Br)cc2)n1
    8%[15.4 µM], ·, 0, 4%, 0.8, 18%, 8
- NNC(=O)c1csc(-c2ccc(C(F)(F)F)cc2Cl)n1
    ?, ·, 14, 0%, 4.9, 2%, -16
- O=c1[nH]ncc(N/N=C\c2ccncc2)c1Cl
    17%, -2.9%, 9, 4%, 0.2, 23%, -4

Shown tab-delimited: part of the list above.
smiles	gsp agonist	ClpP mod	TRPML1 inh	gsp antagonist	Menin-MLL FL inh	Sfp inh	TRPV1 PAM
CCn1nc(C)cc1C(=O)N1CCCC(Nc2ccc(C(C)C)cc2)C1 (configuration not stated)	?	-14%	10	1%	-4.0	5%	-8
O=C(NCc1ccccc1Cl)C1CC(=O)N(Cc2ccccc2)C1 (configuration not stated)	-6%[15.4 µM]	-2.3%	-16	7%	1.1	24%	-11
O=c1[nH]ncc(N/N=C\c2ccncc2)c1Cl	17%	-2.9%	9	4%	0.2	23%	-4

New compounds follow
Every second line gives: gsp agonist, ClpP mod, TRPML1 inh, gsp antagonist, Menin-MLL FL inh, Sfp inh, TRPV1 PAM
- C/C(=N\S(=O)(=O)c1ccc(C)cc1)N1CCN(S(=O)(=O)c2ccccc2)C1
    -31%, -1.5%, -3, 2%, 7.9, 8%, -2
- C[n+]1cccc2c(Br)ccc([O-])c21
    ?, ·, 1, -20%, 0.4, 56µM*, -2
- COc1ccc(C(=O)N2CCCC(CNC(=O)c3ccc(F)cc3)C2)cc1OC (configuration not stated)
    13%, -1.2%, -9, 16%, ·, 6%, 11
- O=C(COC(=O)C1CCC1)Nc1cc(S(=O)(=O)N2CCCCC2)ccc1Cl
    11%, -0.8%, -16, 6%, ·, ·, 3
- O=C(OCC(=O)N1CCCC1=O)c1cc(S(=O)(=O)N2CCOCC2)ccc1F
    ?, 0.5%, 16, 17%, ·, ·, 6
- N#CCSc1nnc(COc2ccc3ccccc3c2)o1
    -4%, -3.2%, 53, -5%, 1.2, -5%, 25
- Cc1cccc(NC(=S)NC23CN4CN(CN(C4)C2)C3)c1C
    5%[15.4 µM], ·, 9, 9%, -0.1, -11%, -14
- CS(=O)(=O)N(CC(=O)NCC1CCCO1)c1ccc(Cl)c(Cl)c1 (configuration not stated)
    8%, 0.8%, -1, -2%, 1.7, 1%, -8
- CC(NS(=O)(=O)c1ccccc1)C(c1cccs1)N1CCN(C)CC1 (configuration not stated)
    -4%, 0.5%, -10, 11%, 1.3, 5%, -26
- Cc1cc2nc(C(F)(F)F)cc(-c3cccs3)n2n1
    -21%, -6.3%, -20, 10%, -0.9, 19%, 6
- Cn1c(=S)ccc2ccccc21
    23%, ·, 47, 3%, -3.8, 45µM*, 7
- COC(=O)C1=C(C)N(c2ccc(Br)cc2)C(=O)/C1=C\c1ccco1
    31%[15.4 µM], 0.4%, 5, -13%, 8.2, -29%, 2
- Cc1cnc(C(=O)Nc2nnc(C)s2)cn1
    11%, 1.8%, -16, 2%, 1.5, 79µM*, 0
- O=C(Cc1n[nH]c(=O)c2ccccc12)OCC(=O)c1ccc(F)c(F)c1
    -15%, ?, -11, 7%, ·, ·, 25
- COC(=O)c1ccc(CSc2nnc(C)s2)cc1
    26%, 0.4%, 1, 0%, 4.2, 2%, -18
- OCCC1CN(CCCc2ccccc2)CCN1Cc1ccc(F)cc1 (configuration not stated)
    11%[15.4 µM], 32µM*, -1, 1%, -5.4, 26%, -16
- CC(C)CCSc1nc2c(c(=O)[nH]c(=O)n2C)n1CCCc1ccccc1
    23%, 0.3%, 24, -3%, -0.6, -11%, -3
- CCOC(=O)C1=C(N)Oc2cc(O)ccc2C1c1cccnc1 (configuration not stated)
    0%, 0.5%, 3, ?, 8.9, 4%, 3
- CCOc1ccc2nc(NC(=O)c3cc([N+](=O)[O-])ccc3N3CCOCC3)sc2c1
    2%, 0.1%, 6, -19%, 0.2, -8%, -5
- C=CCn1c(SC(C)C(=O)NCCC2=CCCCC2)nc2ccccc2c1=O (configuration not stated)
    21%, -0.7%, -6, -5%, 2.0, -1%, -14
- CCN(CC)S(=O)(=O)c1ccc(-c2nnc(SCc3nnc(-c4ccc(C)cc4)o3)n2CC)cc1
    -31%[inhibitor], 0.7%, -8, -4%, 4.4, 11%, 1
- COC(=O)CSc1nnc(SCc2ccc(OC)cc2)s1
    1%[15.4 µM], -1.1%, 6, -14%, 1.9, 1%, 16
- CCn1cc(C(=O)NC2CCCCC2C)c(=O)c2ccc(C)nc21 (configuration not stated)
    ?, -2.2%, -7, 9%, 0.5, 3%, -6
- CN(C)c1cccc(C(=O)NCC2CCCO2)c1 (configuration not stated)
    21%, 10%, 11, -11%, 0.2, 12%, 8
- COc1ccc(OC)c(NC(=O)c2c3c(nc4ccccc24)CCC3)c1
    10%, 0.4%, 14, -3%, -4.0, -9%, ·
- CNC(=S)N=Nc1c(O)[nH]c2ccc(C(C)C)cc12
    -25%, 3.2%, 34, 11%, -1.2, -10%, -17
- Cn1c(=O)c2c(nc(CN3CCN(c4ccccc4)CC3)n2Cc2ccccc2F)n(C)c1=O
    ·, ·, ·, ·, -2.9, 5%, -2
- O=C(CN1CCOCC1)NCc1ccccc1
    8%, 1.2%, -20, -4%, -0.9, 0%, 9
- CSc1ccccc1NC(=O)c1cc(Cl)sc1Cl
    -6%[15.4 µM], 4.0%, 0, -7%, 1.7, 10%, 2
- Cc1ccc(SCC(=O)NCc2ccncc2)cc1
    ?, 1.9%, -9, 7%, 11, 14%, -26
- CCOc1ccccc1NC(=S)N1CCN(c2nc(-c3ccc(F)cc3)cs2)CC1
    -21%, -0.3%, 5, -7%, 0.8, 16%, 11
- O=C(COC(=O)c1cc([N+](=O)[O-])ccc1NCCO)Nc1cccc(S(=O)(=O)N2CCCC2)c1
    -19%[15.4 µM], ·, -14, -20%, ·, ·, -8
- Nc1ncnc(N)c1NC(=O)c1ccc(OCc2ccccc2)cc1
    1%, 3.2%, 7, ·, ·, ·, ·
- Cc1cccc(N2CCN(CC(=O)NCC3CCCCC3)CC2)c1C
    -23%, -1.8%, 25, -15%, 0.7, -24%, 11
- CCCCCCCCCCCC(=O)NC(C(=O)O)C(O)c1ccccc1 (configuration not stated)
    10%[15.4 µM], ·, -20, 5%, -0.5, ?, 4
- COc1ccc(S(=O)(=O)NCC(c2cccnc2)N2CCN(Cc3ccccc3)CC2)cc1C (configuration not stated)
    6%, -0.5%, -17, -7%, ·, 10%, 2
- Cc1ccc(S(=O)(=O)N2CCCCC2)cc1C(=O)N1CCCC1
    6%, -2.2%, -9, -2%, ·, 11%, 2

Screening results (PubChem BioAssay)
